High-throughput results: PubChem, ICCB-Longwood Screening Facility, Harvard Medical School
MenB inh: inhibitors of Mycobacterium tuberculosis MenB enzyme; P9WNP5; MenB enzyme assay, absorbance read-out; some hits fall short of the stated cut; inhibition, %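 (about 12 µg/mL by stock and volumes)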; hit rate 0.43% among 100,000;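 active = mean of two replicates above 30%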;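 also: 0% = no compound and 100% = wells with inactive enzyme; the first replicate is given; strong numbers were not always called active; inactives centre near -10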
Target sequence (P9WNP5 whole entry, looked up): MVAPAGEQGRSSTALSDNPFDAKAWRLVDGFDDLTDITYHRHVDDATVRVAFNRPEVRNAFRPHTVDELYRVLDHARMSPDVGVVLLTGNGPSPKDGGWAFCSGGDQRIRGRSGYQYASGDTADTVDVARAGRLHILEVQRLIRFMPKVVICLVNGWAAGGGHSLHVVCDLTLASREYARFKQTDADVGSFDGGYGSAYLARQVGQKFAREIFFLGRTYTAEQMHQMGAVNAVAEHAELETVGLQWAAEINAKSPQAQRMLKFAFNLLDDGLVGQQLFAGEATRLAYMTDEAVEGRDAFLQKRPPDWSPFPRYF
Mtb MbtI inh: blocks the Mycobacterium tuberculosis siderophore enzyme MbtI; hit rate 0.89% among 100,000; P9WFX0; purified MbtI enzyme, fluorescence intensity read-out; inhibition, %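 (about 17 µg/mL by stock and volumes)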;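 active = above 50% in both replicates, above 80% if mildly self-fluorescent; inactive = the rest, strongly fluorescent compounds included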;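 also: 0% = mean of negative and 100% = mean of positive controls; one replicate is shown; some compounds called inactive have numbers as strong as hits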
PV pol inh: inhibitors of poliovirus RNA polymerase binding and polymerization; P03300; poliovirus polymerase elongation, fluorescence polarization; stronger effect = lower value; % elongation, % (compound at 16.7 µg/mL); hit rate 0.66% among 150,000; AID 588519; in the data active = % elongation below about 90%; also: some results filed as inactive read as strong as hits
Target sequence (P03300 1749-2209 limits assumed): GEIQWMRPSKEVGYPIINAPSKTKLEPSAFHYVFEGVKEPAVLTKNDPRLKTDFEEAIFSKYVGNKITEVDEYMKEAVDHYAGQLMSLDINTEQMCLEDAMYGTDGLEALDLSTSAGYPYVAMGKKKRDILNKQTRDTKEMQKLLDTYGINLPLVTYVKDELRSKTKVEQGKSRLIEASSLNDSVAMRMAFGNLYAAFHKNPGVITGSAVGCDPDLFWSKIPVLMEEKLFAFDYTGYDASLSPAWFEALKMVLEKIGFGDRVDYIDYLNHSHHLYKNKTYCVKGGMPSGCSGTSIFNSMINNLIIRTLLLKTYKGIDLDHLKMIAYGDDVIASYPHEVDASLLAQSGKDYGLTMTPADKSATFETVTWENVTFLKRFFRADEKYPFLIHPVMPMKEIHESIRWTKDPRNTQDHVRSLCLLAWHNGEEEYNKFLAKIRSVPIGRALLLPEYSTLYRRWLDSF
PV pol inh intensity: also measured in PV pol inh; calls as there; % elongation; measured here: total intensity read-out; formula for this scale not given here;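 total fluorescence in place of polarization; lower means less elongation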
Numbers without * were called inactive; · = no result given.

SMILES	MenB inh	Mtb MbtI inh	PV pol inh	PV pol inh intensity
O=C1C=CC(=O)N1c1ccc(-c2nc3ccccc3o2)cc1	-23	14	104	99
O=C(O)CCc1ccc(-c2ccccc2)n1-c1ccc(Cl)cc1	-14	·	98	107
NC(=O)c1c(NC(=O)c2cc3ccccc3o2)sc2c1CCC2	·	-1	104	107
COc1ccc(N2CCN(Cc3c(O)ccc4ccccc34)CC2)cc1	-35	7	99	94
O=C(O)/C=C/c1cnn(-c2ccccc2)c1	-5	8	103	108
O=C(C1=NN(c2ccccc2)C2C(=O)N(c3ccccc3)C(=O)C12)c1ccccc1 (configuration not stated)	-3	·	121	136
O=C(/C=C/c1cn(Cc2ccccc2)nn1)N1CCN(C2CCS(=O)(=O)C2)CC1 (configuration not stated)	-32	-5	107	99
CCOc1cc(/C=C2/C(=O)N(c3nn[nH]n3)N=C2C)cc(Cl)c1OCC	-9	35	95	90
CC1CCc2c(sc3nc(C(C)C)n4c(SCC(=O)NCc5ccco5)nnc4c23)C1 (configuration not stated)	27*	5	103	101
COCCc1cc(C(F)(F)F)c2c(=O)n(C)c(=O)n(C)c2n1	0	-111	104	111
COc1ccc(CCC(=O)NCC(c2ccc(N(C)C)cc2)N2CCCC2)cc1 (configuration not stated)	-1	0	101	101
O=C(O)c1ccc(OC(F)F)cc1	-16	1	102	109
CN(C)NS(=O)(=O)c1ccc2c(c1)Cc1cc(S(=O)(=O)NN(C)C)ccc1-2	-19	10	100	104
COC(=O)C1=C(C)N(C)C(=S)N(C)C1c1cccc(Br)c1 (configuration not stated)	-22	38	97	99
O=C(Nc1ccccc1)c1ccccc1	-6	·	108	113
CN(C)CCCNc1c2c(nc3cc(-c4cccc(F)c4)nn13)CCC2	-17	-3	103	104
O=C(CSc1nc2c(sc3ccccc32)c(=O)n1CC1CCCO1)c1ccccc1 (configuration not stated)	-74	10	103	108
COc1ccc(-c2noc(CN(C(=O)CCc3ccccc3)C(C)C)n2)cc1	-1	-4	99	104
Nc1nc(SCC(=O)N(CCO)CCO)nc2sc3c(c12)CCCC3	-15	14	106	100
CCCNC(=O)Cn1cnc2sc(C(=O)NCCCN3CCOCC3)c(C)c2c1=O	7	0	101	101
Cc1ccc2c(c1)N(C(=O)N1CCC(C(=O)O)CC1)CC(C)O2 (configuration not stated)	-6	0	105	105
COc1ccc(S(=O)(=O)NC(C)C)cc1	-25	·	105	104
Fc1ccccc1Nc1ccc2ccccc2n1	·	-58	102	101
Cc1ccc(/C(COc2ccccc2O)=N\O)cc1	·	-8	104	106
NC(C(=O)O)C(O)c1ccccc1 (configuration not stated)	-6	·	100	101

Exported field by field: part of the list above.
> CN(C)NS(=O)(=O)c1ccc2c(c1)Cc1cc(S(=O)(=O)NN(C)C)ccc1-2
  MenB inh: -19	Mtb MbtI inh: 10	PV pol inh: 100	PV pol inh intensity: 104

> COc1ccc(-c2noc(CN(C(=O)CCc3ccccc3)C(C)C)n2)cc1
  MenB inh: -1	Mtb MbtI inh: -4	PV pol inh: 99	PV pol inh intensity: 104

> Fc1ccccc1Nc1ccc2ccccc2n1
  MenB inh: ·	Mtb MbtI inh: -58	PV pol inh: 102	PV pol inh intensity: 101

> CN(C)CCCNc1c2c(nc3cc(-c4cccc(F)c4)nn13)CCC2
  MenB inh: -17	Mtb MbtI inh: -3	PV pol inh: 103	PV pol inh intensity: 104

Among those listed so far, seven contain a halogen:
SMILES	MenB inh	Mtb MbtI inh	PV pol inh	PV pol inh intensity
O=C(O)CCc1ccc(-c2ccccc2)n1-c1ccc(Cl)cc1	-14	·	98	107
CCOc1cc(/C=C2/C(=O)N(c3nn[nH]n3)N=C2C)cc(Cl)c1OCC	-9	35	95	90
COCCc1cc(C(F)(F)F)c2c(=O)n(C)c(=O)n(C)c2n1	0	-111	104	111
O=C(O)c1ccc(OC(F)F)cc1	-16	1	102	109
COC(=O)C1=C(C)N(C)C(=S)N(C)C1c1cccc(Br)c1 (configuration not stated)	-22	38	97	99
CN(C)CCCNc1c2c(nc3cc(-c4cccc(F)c4)nn13)CCC2	-17	-3	103	104
Fc1ccccc1Nc1ccc2ccccc2n1	·	-58	102	101

Continued.
SMILES	MenB inh	Mtb MbtI inh	PV pol inh	PV pol inh intensity
Cc1ccc(CSc2n[nH]c(-c3ccc(C(C)(C)C)cc3)n2)cc1	-4	-4	112	111
CCOC(=O)Cn1ncc2c3ccccc3n(CC(=O)OCC)c2c1=O	-8	19	100	101
O=C(c1ccc(F)cc1)N1CCCCC(Sc2ccccn2)C1=O (configuration not stated)	-11	2	95	94
CC(=O)N=C1c2ccccc2CN1c1ccc(C#N)cc1	·	-3	99	103
Cc1c(Cc2ccccc2)c(=O)oc2c(O)c(O)ccc12	-10	41	102	100
O=C(Nn1cnnc1)c1ccc(Cl)cc1	2	3	104	97
COc1ccc(C)cc1NS(=O)(=O)c1cccs1	-4	-3	104	103
Cc1ccc(NC(=O)C(C)Sc2nnc(C3CCCCC3)n2C)cc1 (configuration not stated)	-10	10	102	103
CC1(C)Cc2c(C#N)c(N)sc(=S)c2CO1	-32	37	99	99
CCOC(=O)COc1cc(=O)[nH]c2ccc(OC)cc12	-2	-12	103	103
CC(C)(CC(=O)O)CC(=O)Nc1ccc2c(c1)OCO2	-8	-11	99	100
O=C(Nc1ccc(-n2cnnn2)cc1)C1c2ccccc2Oc2ccccc21	-14	-11	105	110
NC1(N)OC(CN2C(=O)c3ccccc3C2=O)CS1 (configuration not stated)	6	-5	101	105
Fc1ccc(NC(=S)NC2CC2)cc1Cl	-17	-11	95	104
CC(SC1CCCC1)C(=O)Nc1ccnn1C(C)C (configuration not stated)	-14	-16	103	103
CCSc1nnc(NC(=O)C2Cc3ccccc3CN2C(=O)c2ccco2)s1 (configuration not stated)	-32	28	102	115
Cc1nc2c(c3nc(C#N)c(C#N)nc3n2Cc2ccco2)c2nc3ccccc3n12	-27	-10	104	96
Cc1ccc2oc(-c3cccc(N4C(=O)c5cccnc5C4=O)c3)nc2c1	-1	-4	101	102
CC(C)(C)c1ccc(CCC2OCC(CN3CCOCC3)O2)cc1 (configuration not stated)	·	-12	98	96
C=CCN=C1CC(C)(C)CC(=O)/C1=C(\O)CCC(=O)OC	-8	-46	101	101
CC(C)C(C)(C#N)NC(=O)CSc1nc2ccc(Br)cc2c(=O)n1Cc1ccco1 (configuration not stated)	1	25	103	103
Cc1cc(C)n(-c2ccc(Cl)c(C(=O)OCC(=O)NCc3ccco3)n2)n1	-22	10	103	106
O=C(COCc1cc(-c2ccc(F)cc2)on1)N1CCOCC1	4	8	104	100
O=C(c1ccc2c(=O)n3c(nc2c1)CCCCC3)N1CCc2ccccc21	-4	-6	99	99
O=C(Nc1ccccc1F)Oc1ccccc1F	-16	-9	101	102

Compounds from the list above that contain a cyano group (4):
SMILES	MenB inh	Mtb MbtI inh	PV pol inh	PV pol inh intensity
CC(=O)N=C1c2ccccc2CN1c1ccc(C#N)cc1	·	-3	99	103
CC1(C)Cc2c(C#N)c(N)sc(=S)c2CO1	-32	37	99	99
Cc1nc2c(c3nc(C#N)c(C#N)nc3n2Cc2ccco2)c2nc3ccccc3n12	-27	-10	104	96
CC(C)C(C)(C#N)NC(=O)CSc1nc2ccc(Br)cc2c(=O)n1Cc1ccco1 (configuration not stated)	1	25	103	103

The list continues.
SMILES	MenB inh	Mtb MbtI inh	PV pol inh	PV pol inh intensity
O=S1(=O)CCC(N2CCCCC2)C1 (configuration not stated)	-4	-13	104	102
Cn1cc(NC(=O)NCC2CCCO2)c2ccccc2c1=O (configuration not stated)	-6	94	94	95
CCOC(=O)c1c(C(=O)OCC)c(C)n(CCc2c[nH]c3ccccc23)c1C	-19	-5	101	103
CC(NC(=O)C1=COCCO1)c1ccc(Cl)c(Cl)c1 (configuration not stated)	-9	5	101	100
O=C(CCSc1nnc(-c2ccco2)o1)Nc1ccccc1	17	-2	101	103
CC(=O)N1c2ccccc2NC2=C(C(=O)CC(C)(C)C2)C1c1cccnc1 (configuration not stated)	1	-17	99	102
CCc1nn(CC(=O)N(C)C2CCCCC2)c(=O)c2cc3cc(C)ccc3n12	8	10	105	99
CCc1ccc(N2CC(C(=O)N3CCCC3)CC2=O)cc1 (configuration not stated)	3	-6	102	102
COc1ccc(-c2nc3scc(CCNS(=O)(=O)N(C)C)n3n2)cc1	7	-1	101	102
O=C(Nc1cccc2ccccc12)OCCn1nnnc1CN1CCOCC1	-27	1	102	101
Cn1c(=O)c2c(ncn2CC(O)COc2ccccc2)n(C)c1=O (configuration not stated)	-9	-14	106	111
COc1ccc(CCNC(=O)C2OCCc3ccccc32)cc1OC (configuration not stated)	3	-10	100	104
O=C(/C=C/c1ccco1)Nc1ccc(-c2nc3ccccc3[nH]2)cc1	-15	-24	101	101
CN(C)C(CNS(=O)(=O)c1ccc2c(c1)OCCO2)c1ccco1 (configuration not stated)	-13	-30	96	88
CC(Sc1nnc(CCNC(=O)c2ccccc2F)n1C)c1nc2ccccc2c(=O)[nH]1 (configuration not stated)	17	1	101	103
CCOc1ccc(-n2c(=O)[nH]cc(C(=O)N3CCCc4ccccc43)c2=O)cc1	-137	0	101	100
CCC(=O)c1c(OCC(N)=O)ccc2c(C)cc(=O)oc12	11	21	106	100
Oc1c(Cl)cc(Cl)cc1/C=N/NCCc1ccccn1	-7	-2	100	105
COc1cccc(CNC(=O)CC2=NS(=O)(=O)c3ccccc3N2)c1	0	-15	101	102
COc1cccc2c(=O)n(CC(=O)N3CCOCC3)ccc12	-8	22	102	107
O=C(O)c1ccc(Nc2nnc(-c3c[nH]c4ccccc34)o2)cc1	-7	-122	94	94
CCN(c1ccc(NC(=O)c2cc(Cl)c3c(c2)OCCCO3)cc1)C(C)C	7	-4	103	103
Cc1cc(C(=O)CN2C(=O)NC3(CCSc4ccc(F)cc43)C2=O)c(C)n1CC1CCCO1 (configuration not stated)	-3	21	111	114
CC1CCCC(C)N1C(=O)COC(=O)c1cccnc1Cl (configuration not stated)	·	-7	103	104
C=C(C)CN1c2ccccc2Sc2ccccc21	-21	13	99	102

Some of the entries so far, with bars between the fields:
mol | MenB inh | Mtb MbtI inh | PV pol inh | PV pol inh intensity
Cn1cc(NC(=O)NCC2CCCO2)c2ccccc2c1=O (configuration not stated) | -6 | 94 | 94 | 95
CCOC(=O)c1c(C(=O)OCC)c(C)n(CCc2c[nH]c3ccccc23)c1C | -19 | -5 | 101 | 103

(list continues)
SMILES	MenB inh	Mtb MbtI inh	PV pol inh	PV pol inh intensity
CC(=O)Nc1ccccc1N	-16	·	111	110
CCCCCC(=O)C1CCCCC1=O (configuration not stated)	-5	6	98	101
CCn1c(=O)cc(OCC(=O)NCc2ccc(OC)cc2OC)c2ccccc21	2	5	98	104
CCn1c(=O)c2c(n3c(=S)[nH]nc13)-c1ccccc1CC21CCCCC1	-27	22	101	102
C(=N\n1cnnc1)/c1ccc2c(c1)OCO2	12	72	103	102
O=C(CSc1nc2ccccc2[nH]1)Nc1ccc(N2CCOCC2)cc1	-11	5	104	103
CN(C)c1ccc(NC(=O)COc2cccc3ccccc23)cc1	·	-12	104	108
CC(C)Cn1c(N)c(C(=O)COC(=O)[C@H](C)N=C2NS(=O)(=O)c3ccccc32)c(=O)n(C)c1=O	-19	-8	102	95
c1cncc(C2CCCCN2)c1 (configuration not stated)	1	-12	99	100
Cc1ccc(S(=O)(=O)NC2=NCN(C(C)C)CN2)cc1	-15	-6	100	102
C/C(=N\NC(=O)c1ccc(NS(=O)(=O)c2ccc(Br)cc2)cc1)c1ccc(C)o1	-34	-9	102	96
CN1CCC(N(C)C(=O)c2ccc(Cl)c(S(=O)(=O)Nc3ccccc3C(=O)N(C)C3CCN(C)CC3)c2)CC1	-14	-4	100	102
COc1ccc(CC(=O)N2CCN(c3ccccc3)CC2)cc1	-30	-5	100	100
CCc1nnc(NC(=O)CCC(=O)N2CCC(O)CC2)s1	-6	-8	99	100
